Compound activity (PubChem BioAssay)
VDR inh – Inhibitors of the vitamin D receptor (VDR): qHTS. Vitamin D3 receptor (Homo sapiens), P11473. VDR-SRC2-3 peptide fluorescence polarization, 2 h. Potency, µM, inactives show max response, negative = inhibition, hits mostly inhibitors. 0.93% of 400,000 active; active = well fitted inhibition curve with a large enough effect; inconclusive = small, poorly fitted or top-dose-only effect, or another doubt; inactive = no such curve, though single readings can be large or run the other way; also: series mostly up to about 120 µM
Target sequence (P11473 whole entry, looked up): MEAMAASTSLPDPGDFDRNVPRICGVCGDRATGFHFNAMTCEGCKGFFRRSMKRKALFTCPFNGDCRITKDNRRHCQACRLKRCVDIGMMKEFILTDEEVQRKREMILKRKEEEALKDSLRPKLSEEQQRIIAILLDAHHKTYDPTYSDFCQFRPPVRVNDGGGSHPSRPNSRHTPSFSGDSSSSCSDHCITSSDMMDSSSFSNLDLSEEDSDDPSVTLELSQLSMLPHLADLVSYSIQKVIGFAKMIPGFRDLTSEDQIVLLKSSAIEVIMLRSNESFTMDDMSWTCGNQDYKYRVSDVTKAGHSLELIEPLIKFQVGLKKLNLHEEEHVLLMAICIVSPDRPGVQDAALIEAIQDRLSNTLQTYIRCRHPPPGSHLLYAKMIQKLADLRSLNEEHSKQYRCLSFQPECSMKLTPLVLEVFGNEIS
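Reagent solutions, kept cold and dark, are dispensed first; compounds are then pinned in at 23 nl, plates briefly spun, and incubated 2 h at ambient temperature. Inhibition of VDR–SRC2-3 peptide binding is read by fluorescence polarization.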
Numbers without * were called inactive; [ ] = remark or other dose. % is scaled to controls: 0 for no effect and ±100 for the full control effect; potency is read from the fitted curve at half-maximal effect. The list is partial, so the mix of outcomes need not match the whole.

For O=C(CCc1nc2ccccc2s1)OCc1ccccc1 the results were VDR inh -11.8%.
For CCOc1ccc(CNC(=O)CCCc2cn(C)c3ccccc23)cc1 the results were VDR inh -0.9%.
CCOC(=O)c1c(NC(=O)c2nn(CC)cc2Br)sc2c1CCCCC2 was read as VDR inh 1.0%.
CCCCn1c(C2CC(=O)N(c3ccc(OCC)cc3)C2)nc2ccccc21 (configuration not stated) was read as VDR inh 11.8%.
CSc1ccc(/C=C/C(=O)OCC(=O)NCC2CCCO2)cc1 (configuration not stated) was read as VDR inh -22.1%.
`CCOC(=O)N1CCN(C(=O)c2cc(COc3ccc(Cl)cc3OC)on2)CC1` gave VDR inh -0.3%.
For COc1ccc(C(=O)NCC(=O)OCc2c(Cl)cccc2Cl)cc1OC the results were VDR inh -7.5%.
Screening CC(=O)NS(=O)(=O)c1ccc(NC(=O)c2cc(-c3cccs3)nc3ccccc23)cc1 returned VDR inh -10.4%.
COc1ccc(/C(O)=C2/C(=O)C(=O)N(CCN(C)C)C2c2ccccn2)cc1OC (configuration not stated) was read as VDR inh 0.6%.
Screening COCCNC(=O)c1cnn(-c2ccc(C)cc2C)c1C1CCN(C(=O)OC(C)(C)C)CC1 returned VDR inh 11.5%.
COC(=O)C[C@H]1c2cc(C(F)(F)F)ccc2S(=O)(=O)N1Cc1ccccc1OC was read as VDR inh 0.4%.
For Cc1cccc(NC(=O)CN(CC2CCCO2)C(=O)c2oc3ccc(F)cc3c2C)c1C (configuration not stated) the results were VDR inh -19.5%.
Screening CC(=O)Nc1ccc(NC(=O)COc2cc(O)c3c(c2)OC(C)(C)CC3=O)cc1 returned VDR inh -8.7%.
COc1ccc(C2CC(=O)c3cc(-c4nc(-c5ccc(Cl)cc5)cs4)c(=O)[nH]c3C2)cc1OC (configuration not stated) was read as VDR inh -10.6%.
`CCOC(=O)C1(Cc2cccc(F)c2)CCN(Cc2cn(CC)nc2C)CC1` gave VDR inh 13.0%.
Screening Cc1cccc(NC(=O)C23CCC(C)(C(=O)O2)C3(C)C)c1 (configuration not stated) returned VDR inh 3.7%.
CC(C)CSc1nc2c(c(=O)[nH]c(=O)n2C)n1CC(O)COc1cccc2ccccc12 (configuration not stated) was read as VDR inh inconclusive.
`COC(=O)CC1=C(C(=O)OC)[C@@H](c2ccccc2[N+](=O)[O-])C(C#N)=C(N)O1` gave VDR inh -9.9%.
For CC(=O)Nc1cccc(S(C)(=O)=O)c1 the results were VDR inh -15.6%.
`CC(C)CN(C(=O)CCC(=O)OCC(=O)NCCc1ccccc1)c1c(N)n(CC(C)C)c(=O)[nH]c1=O` gave VDR inh 1.0%.
Screening O=C(CSc1nc2ccc(S(=O)(=O)N3CCOCC3)cc2[nH]1)N1CCOCC1 returned VDR inh 22.4µM*.
Screening Cc1cccc(CNC(=O)Cn2ccc3cc(S(=O)(=O)N4CCC(C)CC4)ccc32)c1 returned VDR inh 14.7%.
CCOC(=O)N1CCC(NS(=O)(=O)c2ccc(C#N)cc2)CC1 was read as VDR inh 0.9%.
For CCN(CC)S(=O)(=O)c1ccc(N2CCCCC2)c(NC(=O)c2ccncc2)c1 the results were VDR inh -6.9%.
Cc1nn(CC#N)c(=O)n1-c1ccc(C(C)C)cc1 was read as VDR inh -4.3%.
Screening CC(C(=O)N1CCCC1)N1CCN(S(=O)(=O)c2ccc(C(C)(C)C)cc2)CC1 (configuration not stated) returned VDR inh -16.7%.
`CCOC(=O)[C@H]1[C@H]2COc3ccc(C)cc3[C@@H]2N2C(=O)[C@@H](CO)NC(=O)[C@@]12C` gave VDR inh -0.9%.
CC(CCC(=O)Nc1nncs1)C(=O)O (configuration not stated) was read as VDR inh -17.6%.
For CN(C)c1nc(-c2ccccc2)nnc1C(F)(F)F the results were VDR inh -16.0%.
For Oc1ccc(-c2nncn2-c2ccccc2)cc1 the results were VDR inh -12.9%.

The final 6 records of the section above come first, to join the parts.
Cc1nn(CC#N)c(=O)n1-c1ccc(C(C)C)cc1 was read as VDR inh -4.3%.
Screening CC(C(=O)N1CCCC1)N1CCN(S(=O)(=O)c2ccc(C(C)(C)C)cc2)CC1 (configuration not stated) returned VDR inh -16.7%.
`CCOC(=O)[C@H]1[C@H]2COc3ccc(C)cc3[C@@H]2N2C(=O)[C@@H](CO)NC(=O)[C@@]12C` gave VDR inh -0.9%.
CC(CCC(=O)Nc1nncs1)C(=O)O (configuration not stated) was read as VDR inh -17.6%.
For CN(C)c1nc(-c2ccccc2)nnc1C(F)(F)F the results were VDR inh -16.0%.
For Oc1ccc(-c2nncn2-c2ccccc2)cc1 the results were VDR inh -12.9%.
`S=C(NCc1ccc(Cl)cc1)NC1CCCCC1` gave VDR inh -0.2%.
`Cn1ccsc1=NC(=O)c1ccc(OC(F)(F)F)cc1` gave VDR inh 10.8%.
`COc1ccc(C)cc1N(CC(=O)NC1CCCC1)C(=O)CCC(=O)Nc1nc(C)cs1` gave VDR inh -1.6%.
`COc1ccc(C(=O)NNC(=S)NC(=O)c2ccc(Cl)cc2)cc1` gave VDR inh 4.6%.
`CCc1ccc(NC(=O)NCCN2CCN(c3ccc(OC)cc3)CC2)cc1` gave VDR inh 6.3%.
For Cc1ccc2oc(=O)ccc2c1 the results were VDR inh -7.5%.
Screening Cc1ccc(-c2nnn(CC(=O)Nc3cccc4c3CCCC4)n2)o1 returned VDR inh 16.0%.
Screening CN(CC(=O)Nc1ccc(Cl)c(Cl)c1)C(=O)CNC(=O)Cc1ccccc1 returned VDR inh 0.9%.
Screening O=C(Nc1ccc(Nc2ccncc2)cc1)c1ccc(Nc2ccnc3ccc([N+](=O)[O-])cc23)cc1 returned VDR inh 6.0%.
For CCc1ccc(-n2nc3ccc(NC(=O)c4cc(Cl)c(OC)c(Cl)c4)cc3n2)cc1 the results were VDR inh 21.9%.
`Cc1nnc(SC(C)C(=O)N(C)C2CCCCC2)n1N` (configuration not stated) gave VDR inh -20.3%.
Screening CCN(CC)S(=O)(=O)c1ccc2c(c1)c(=O)c(C(=O)NCc1ccccc1)cn2C returned VDR inh -0.7%.
CCc1nnc(NC(=O)CSC(=S)N2CCOCC2)s1 was read as VDR inh -17.9%.
`O=C(CCN1C(=O)C2C3CCC(C3)C2C1=O)Nc1ccc(Br)cc1` (configuration not stated) gave VDR inh -12.2%.
For CCc1c(C)nc2ncnn2c1N1CCC(C(=O)Nc2cccc(C(C)=O)c2)CC1 the results were VDR inh -3.7%.

Part of the list above in order of length of the SMILES, rising.
For Cc1ccc2oc(=O)ccc2c1 the results were VDR inh -7.5%.
`S=C(NCc1ccc(Cl)cc1)NC1CCCCC1` gave VDR inh -0.2%.
CCc1nnc(NC(=O)CSC(=S)N2CCOCC2)s1 was read as VDR inh -17.9%.
`Cc1nnc(SC(C)C(=O)N(C)C2CCCCC2)n1N` (configuration not stated) gave VDR inh -20.3%.
`COc1ccc(C(=O)NNC(=S)NC(=O)c2ccc(Cl)cc2)cc1` gave VDR inh 4.6%.
`CCc1ccc(NC(=O)NCCN2CCN(c3ccc(OC)cc3)CC2)cc1` gave VDR inh 6.3%.
Screening CCN(CC)S(=O)(=O)c1ccc2c(c1)c(=O)c(C(=O)NCc1ccccc1)cn2C returned VDR inh -0.7%.

The listing continues:
For CCC(=O)N1c2ccc(S(=O)(=O)NCCc3ccc(OC)c(OC)c3)cc2CC1C (configuration not stated) the results were VDR inh 6.4%.
Screening Cc1cccc(C(=O)NCCC(=O)N2CCc3ccccc3C2)c1 returned VDR inh -1.2%.
Screening CCOc1ccc(CCNC(=O)Cn2ncn3nc(-c4ccc(OC)cc4)cc3c2=O)cc1OCC returned VDR inh -10.4%.
For CN(C)c1ccc(C=NCCC2(c3ccccc3)CCOC(C)(C)C2)cc1 (configuration not stated) the results were VDR inh 8.4%.
`COc1cccc(CNC(=O)c2cc(-c3ccc(Cl)s3)nc3ccccc23)c1` gave VDR inh 1.7%.
CC1S/C(=N\N=C\c2cccc([N+](=O)[O-])c2)N(C(C)(C)C)C1=O (configuration not stated) was read as VDR inh -3.6%.
For COc1ccc(OC)c(NC(=O)NNC(=O)COc2ccc(-c3ccccc3)cc2)c1 the results were VDR inh 1.6%.
COc1ccc(C(=NNc2ccccc2C(=O)O)c2ccc(OC)cc2)cc1 was read as VDR inh 12.4%.
`CCCc1cc2c(cc1NC(=O)c1ccc(C(C)(C)C)cc1)OCO2` gave VDR inh -26.4%.
`Cc1ccc(S(=O)(=O)NC(CC(=O)NC2CCCC2)c2ccco2)cc1` (configuration not stated) gave VDR inh 8.2%.
For COc1cccc(C(=O)Oc2cc(-c3ccccc3)no2)c1 the results were VDR inh 24.6%.
`Cc1ccc(OC(=O)c2ccc3c(=O)n4c(nc3c2)CCC4)cc1` gave VDR inh -17.9%.
O[C@H](CCCN1CCN(c2ncc(F)cn2)CC1)c1ccc(F)cc1 was read as VDR inh 5.6%.
For CC(c1ccccc1C(=O)O)c1cc(F)cc2ccccc12 (configuration not stated) the results were VDR inh -2.9%.
For CC(C)=C1C2CCC1C1C(=O)N(NC(=O)COc3ccc(Cl)c(C)c3)C(=O)C21 (configuration not stated) the results were VDR inh 1.5%.
Screening CCCN(CC(=O)Nc1ccccc1OC)C(=O)c1ccc(=O)[nH]c1 returned VDR inh -5.5%.
CCOc1ccc(C(=O)/C=C/Nc2ccc(S(=O)(=O)N=C(N)N)cc2)cc1 was read as VDR inh -6.7%.
`O=c1/c(=C/c2ccccc2)sc2nnc(-c3cccs3)n12` gave VDR inh -12.2%.
`CCC(C)[C@H](NC(=O)OC(C)(C)C)C(=O)NCC1CCC(C(=O)N[C@@H](Cc2ccccc2)C(=O)O)CC1` (some centres not stated) gave VDR inh -1.3%.
Screening c1ccc2oc(SCc3cn4ccsc4n3)nc2c1 returned VDR inh -4.2%.
Cc1cccc(N(CC(=O)Nc2ccc(-c3nc4ccc(C)cc4s3)cc2)S(C)(=O)=O)c1 was read as VDR inh 7.1%.
Screening CCNC(=O)N(C)C[C@H]1N[C@@](Cc2ccccc2)(C(=O)OC)[C@H]2C(=O)N(C)C(=O)[C@@H]12 returned VDR inh 4.6%.
Cc1ccc(C)c(C(=O)Cn2ncc(Cl)c(Cl)c2=O)c1 was read as VDR inh -7.0%.
Cc1ccc(-n2nc(C)c3c(C(=O)NCCc4ccccc4)cc(C)nc32)cc1 was read as VDR inh 9.1%.
For COc1ccc(NC(=O)CSc2sc3c(O)cc(=O)[nH]c3c2C#N)c(OC)c1 the results were VDR inh -11.9%.
COc1ccccc1CCn1cnc2c3cc(C)ccc3n(C)c2c1=O was read as VDR inh 5.1%.
For CC(CCc1ccccc1)NC(=O)COc1cc(F)ccc1[N+](=O)[O-] (configuration not stated) the results were VDR inh 13.0%.
`Cc1nnc(SCCn2c(N3CCCC(C)C3)nc3c2c(=O)n(C)c(=O)n3C)s1` (configuration not stated) gave VDR inh -12.0%.
O=C(COc1ncnc2scc(-c3ccc(F)cc3)c12)NCc1ccco1 was read as VDR inh 12.8%.
For CC[N+](C)(CC)CCC/C(=N/O)C(O)(c1ccccc1)c1ccccc1 the results were VDR inh 22.7%.
For COC(=O)/C(=C/Nc1ccc(O)cc1)[N+](=O)[O-] the results were VDR inh -2.8%.
For CCN(CC)Cc1cc2ccccc2c2c1COC2 the results were VDR inh 6.6%.
Screening COc1cccc(NC(=O)N2CCCC(C(=O)NCc3ccc(F)cc3)C2)c1 (configuration not stated) returned VDR inh 8.9%.
Screening COc1ccc(C(NCC(=O)NC(C)c2ccc(Cl)cc2)c2ccccc2)cc1 (configuration not stated) returned VDR inh -10.6%.
For O=C(c1ccco1)N1CCN(C(=O)N2CCCC2)CC1 the results were VDR inh -7.2%.
For CCN(CC)c1ccc(C(=C2C=CC(=[N+](CC)CC)C=C2)c2ccc(S(=O)(=O)O)cc2S(=O)(=O)[O-])cc1 the results were VDR inh 57.1%[activator].
COc1ccc(N(CC(=O)Nc2ccc3c(c2)OCO3)S(=O)(=O)c2ccc(F)cc2)cc1 was read as VDR inh -1.9%.
For O=C(C1CCCN(S(=O)(=O)c2ccccc2)C1)N1CCCCCC1 (configuration not stated) the results were VDR inh 3.4%.
Screening C/C(Cc1ccccc1)=N\NC(=O)CNC(=O)c1ccccc1 returned VDR inh 12.9%.
CC(=O)Nc1ccc(S(=O)(=O)NNC(=O)COc2ccc(C)cc2)cc1 was read as VDR inh -7.9%.
O=C(O)c1nnn(-c2cc(C(F)(F)F)cc(C(F)(F)F)c2)c1-c1ccccc1 was read as VDR inh -26.2%.
`Cc1nn(-c2ccccc2)c(C)c1NC(=O)COC(=O)Cc1ccccc1F` gave VDR inh 16.5%.
For O=C(Nc1ccc(Cl)cc1)OCc1cn(-c2ccccc2)nn1 the results were VDR inh 0.3%.
For O=C(Nc1ccc(Cl)cc1)C1CCN(S(=O)(=O)c2ccc(Br)s2)CC1 the results were VDR inh -27.1%.
For O=C(Cc1ccc(F)cc1)OCN1C(=O)c2ccccc2C1=O the results were VDR inh -18.0%.
Screening COc1ccc(S(=O)(=O)N2CCOCC2)cc1NC(=O)c1ccc(OCC(C)C)c(OC)c1 returned VDR inh 8.8%.
Screening CS/C(N)=N/N=C/c1cc(Br)cc(Br)c1O returned VDR inh 1.3%.
For CCOc1ccc(C(CCc2ccccc2)NC(=O)c2ccc(OC)c(OC)c2)cc1OCC (configuration not stated) the results were VDR inh 16.5%.
